# RanGTP-Imp inh – inhibitors of RanGTP-importin-beta interaction, primary screen, biochemical, FRET, CFP-Ran, YFP-importin-beta, homogeneous | Ran GTPase (GTP-bound) - importin-beta complex | cell-free CFP-Ran/YFP-importin-beta FRET ratio | inhibition, % (no concentration beside the values) | 300,000 tested, 1.1% active | AID 2216, 2009;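 active = most replicates above 15%; inconclusive = exactly half above 15%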;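 also: 0% = DMSO wells and 100% = Ran loaded with GDP instead of GTP; wells of about 40 µL received 100 nL stock; the first replicate is given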
# UCH37 inh – inhibitors of human UCH37 deubiquitinase, primary screen, biochemical, Ub-AMC cleavage, fluorescence. Ubiquitin carboxyl-terminal hydrolase isozyme L5 (Homo sapiens), Q9Y5K5. purified proteasome/UCH37. inhibition, % (no concentration beside the values). 330,000 tested, 0.33% active;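 active = mean of two replicates above 20%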;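 also: 0% = compound-free wells with enzyme and 100% = wells lacking proteasome; stock transfer was 100 nL into about 20 µL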
# Target sequence (Q9Y5K5 whole entry, looked up): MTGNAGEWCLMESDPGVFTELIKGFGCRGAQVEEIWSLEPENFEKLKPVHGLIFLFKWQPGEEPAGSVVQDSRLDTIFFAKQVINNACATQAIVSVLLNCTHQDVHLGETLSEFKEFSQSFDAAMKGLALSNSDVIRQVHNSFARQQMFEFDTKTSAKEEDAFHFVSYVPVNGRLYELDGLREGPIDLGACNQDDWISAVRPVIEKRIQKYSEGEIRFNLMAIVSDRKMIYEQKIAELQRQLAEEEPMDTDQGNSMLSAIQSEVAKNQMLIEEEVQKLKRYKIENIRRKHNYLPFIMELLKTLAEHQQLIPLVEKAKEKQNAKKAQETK
#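 Material: human UCH37 enzyme supplied as purified proteasome complex. Measure: % inhibition of Ub-AMC cleavage fluorescence. Medium: pH 7.4 Tris-HCl (50 mM) with ovalbumin, ATP-MgCl2, DTT. Times: 30 min preincubation with enzyme, 25 min cleavage at room temperature. Detection: AMC fluorescence intensity at 355/460 nm.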
# Vif A3G – inhibitors of Vif binding to APOBEC3G peptide, primary screen, biochemical, TR-FRET, GST-Vif 1-94, biotin-A3G peptide, dose response retest (AID 1117319) | Virion infectivity factor (Human immunodeficiency virus type 1 group M subtype B (isolate … | TR-FRET GST-Vif / biotin-A3G peptide binding; higher % means a stronger effect; test concentration not given here; strong numbers were not always called active | inhibition, %, or IC50 in µM where a hit was titrated | 260,000 tested, 0.57% active;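 active = above the screen mean plus three standard deviations and confirmed in dose response; inconclusive = results disagree or hit not tested in dose response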;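 also: Vif residues 1-94 fused to GST binding biotinylated APOBEC3G peptide 110-148; 0% = full assay without inhibitor and 100% = GST in place of GST-Vif; retest series ran down from 100 µM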
# FGF22 binding – binders of human FGF22 protein, primary screen, FGF22 synaptogenesis inhibitor project, biophysical, thermal shift, single point; calls only at 9.99 µM; 340,000 tested, 1.5% active; recombinant FGF22 thermal shift, SYPRO orange fluorescence; percent of sucrose octasulfate shift, DMSO zero; Fibroblast growth factor 22 (Homo sapiens), Q9HCT0; AID 651658, 2012;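 active = melting point raised past a set limit in the mean and every replicate; inconclusive = no clear call; three in four hits are not shown here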
# Target sequence (Q9HCT0 whole entry, looked up): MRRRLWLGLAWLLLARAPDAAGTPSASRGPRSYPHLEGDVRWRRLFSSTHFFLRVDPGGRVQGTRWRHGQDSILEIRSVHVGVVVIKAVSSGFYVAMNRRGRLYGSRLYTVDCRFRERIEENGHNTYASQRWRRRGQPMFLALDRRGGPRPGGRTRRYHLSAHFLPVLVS
# E coli growth – E. coli growth inhibition, primary screen, OD600; Escherichia coli growth, 23 h; hits give low values; OD600 absorbance (no concentration beside the values); 330,000 tested, 0.21% active; AID 1053175, 2014;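 active = OD600 absorbance below the run mean of sample wells minus 3.6 SD, in any replicate, cut at about 0.56 in these data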;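 also: stock transfer was 300 nL into about 60 µL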
# MLL AF4-AF9 inh – inhibitors of AF4 peptide binding to AF9, primary screen, biochemical, AlphaScreen, biotin-AF4 peptide, FLAG-AF9, single point; Protein AF-9 (Homo sapiens), P42568; inhibition, % at 10 µM; 350,000 tested, 0.47% active;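 active = every replicate reaching a set inhibition limit, whatever the replicate mean, cut at about 25% in these data; inconclusive = mean inhibition reaches that limit but some replicates miss it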;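 also: 0% = plate neutral control median and 100% = total signal loss; the record names both 10 and 1 µM as test concentration; the first replicate is given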
# HNF4A DNA FP – change in binding of human HNF4A to DNA, primary screen, biochemical, fluorescence polarization, FITC-DNA; 1 h; activity change, % at 10 µM; 360,000 tested, 0.3% active; in the data active = activity change above about 30%, passing the limit was not always enough;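 also: controls were the assay level and a saturating level of protein; the project sought stronger binding though the title names inhibitors; some compounds called inactive have numbers as strong as hits; positive values seem to mean higher polarization but the record does not say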
# Target sequence (P41235 whole entry, looked up): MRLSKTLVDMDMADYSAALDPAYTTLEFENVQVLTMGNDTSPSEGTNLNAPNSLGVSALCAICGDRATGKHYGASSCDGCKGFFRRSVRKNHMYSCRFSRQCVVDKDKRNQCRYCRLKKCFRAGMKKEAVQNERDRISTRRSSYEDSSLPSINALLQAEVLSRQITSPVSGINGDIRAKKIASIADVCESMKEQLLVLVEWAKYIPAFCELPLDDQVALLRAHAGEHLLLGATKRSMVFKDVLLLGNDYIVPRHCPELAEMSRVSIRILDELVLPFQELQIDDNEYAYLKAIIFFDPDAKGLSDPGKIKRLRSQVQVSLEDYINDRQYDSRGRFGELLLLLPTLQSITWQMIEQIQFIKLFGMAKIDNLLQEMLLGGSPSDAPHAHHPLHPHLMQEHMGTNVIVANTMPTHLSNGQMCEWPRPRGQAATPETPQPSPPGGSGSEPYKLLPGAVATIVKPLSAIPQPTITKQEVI
# * marks the source's active call; other numbers are inactive results; i = inactive; ? = inconclusive; . = not tested or not shown; & = joins results of further samples. An excerpt; count on the stated rates, not on these rows.
SMILES,RanGTP-Imp inh,UCH37 inh,Vif A3G,FGF22 binding,E coli growth,MLL AF4-AF9 inh,HNF4A DNA FP
CC1(C)NC(=O)N(CC(=O)N2CCN(S(=O)(=O)c3cc(Cl)ccc3Cl)CC2)C1=O,.,0.3,-10%,i,0.69,2.0,-2.1
COc1ccc(C(=O)Nc2ccccc2C(=O)N/N=C/c2cccc3ccccc23)cc1,2.5,.,17%,.,.,.,7.5
CCN(CC)Cc1ccc(OC)c(Cl)c1,1.6,-2.1,3%,i,0.72,-1.5,-2.7
CCOC(=O)c1c(-c2ccccc2)csc1NC(=O)CSc1ccccc1,-5.2,3.9,-3%,.,0.69,.,-4.5
Cc1ncc(CO)c(/C=N/NC(=O)c2ccccc2Br)c1O,9.7,.,?,i,.,0.0,1.2
CCNC(=O)C1(C)CCN(C(=O)c2ccc(C(F)(F)F)cc2)C1 (stereo unspecified),.,.,.,i,.,0.6,1.6
Cc1ccc(NC(=O)CCC(=O)NCCO)cc1,0.8,0.2,-1%,.,0.67,.,0.6
COc1ccccc1CNCc1ccc2c(c1)OCO2,.,.,-7%,i,.,-0.8,1.1
COc1cc(C(=S)N2CCCC2)cc(OC)c1OC,3.9,2.6,27%,i,0.67,-0.5,3.3
CCN(CC)S(=O)(=O)c1ccc2oc(SCC3CN=C(c4ccc(OC)cc4)S3)nc2c1 (stereo unspecified),-3.9,-11,4%,.,0.73,.,2.4
Cc1cc(C)c(C)c(S(=O)(=O)N2CCN(c3ccccn3)CC2)c1C,0.8,-0.5,.,i,0.62,1.7,-1.9
COc1ccc(-c2coc3c(C(=O)N4CCN(C)CC4)cccc23)c(C)c1,.,.,.,i,.,5.9,-0.6
O=C(COC(=O)c1ccc(Cl)nc1)NCCc1ccc(F)cc1,.,1.7,.,i,0.59,1.4,-1.3
CCCCN(C)S(=O)(=O)c1cc2c(cc1Br)CCN2C(=O)C1CC1,.,3.8,1%,.,0.7,-1.0,-1.2
O=C(Nc1ccc2c(c1)CCC2)c1cccs1,7.9,2.1,-2%,i,0.66,-2.0,0.4
O=C(COC(=O)CCNS(=O)(=O)c1ccc(Cl)cc1)NCc1ccco1,-4.0,5.2,8%,.,0.73,.,3.9
CCCCCCCCCC[n+]1cccc2c3ccccc3ccc21,-3.5,-424,29%,i,0.13*,12,7.2
COC(=O)c1ccc(NC(=O)CSc2nc(=O)cc(N)n2-c2ccccc2)cc1,?,1.9,.,i,0.7,-11,0.7
CCc1noc(C)c1C(=O)OCC(=O)Nc1cccc(C)c1,.,0.1,-1%,i,0.67,-2.7,1.8
Cc1cc(OCCN2CCCCCC2)ccc1[N+](=O)[O-],-3.1,2.4,1%,.,0.61,.,3.9
O=C1CC(c2ccccc2)Sc2ccccc2N1 (stereo unspecified),1.3,-1.5,5%,.,0.69,.,1.8
CCNC(=O)C1(C)CCCN(C(=O)/C=C/c2ccccc2)C1 (stereo unspecified),.,.,.,i,.,-3.2,0.4
COc1ccccc1N1CCN(C2CCCN(C(=O)Cn3cccn3)C2)CC1 (stereo unspecified),-2.5,1.1,0%,i,0.7,-2.5,4.1
Cc1[nH]c(=O)[nH]c(=O)c1S(=O)(=O)N1CCC(C(=O)N2CCN(c3cccc(C(F)(F)F)c3)CC2)CC1,0.2,-0.3,1%,i,0.71,-0.8,3.0
COc1cc(CN2CCN(Cc3ccc4cc(F)ccc4n3)CC2CCO)cc(OC)c1 (stereo unspecified),?,4.3,.,i,0.73,3.8,1.6

# Other entries follow.
SMILES,RanGTP-Imp inh,UCH37 inh,Vif A3G,FGF22 binding,E coli growth,MLL AF4-AF9 inh,HNF4A DNA FP
COc1ccccc1C(=O)NCCC(=O)N(C)CC(=O)Nc1ccc(C)cc1,.,4.9,5%,.,0.66,0.2,2.2
Cc1cc(Oc2ccc(Cl)cc2)nc(-c2ccccn2)n1,3.2,1.6,?,i,0.7,-1.8,0.7
O=[N+]([O-])c1cccc(C(=Nc2ccccc2Cl)NO)c1,2.2,1.4,2%,.,0.66,.,-3.8
c1coc(-c2nnc3n2C2(CCCC2)Cc2ccccc2-3)c1,4.6,1.2,13%,.,0.7,0.9,1.8
O=C(CSc1nnc(CNC(=O)c2ccco2)o1)Nc1cccc(C(F)(F)F)c1,-0.8,2.1,.,i,0.67,0.3,-1.0
CCn1nc(C)cc1-c1nnc(Sc2ncc([N+](=O)[O-])s2)n1C,-3.4,6.1,12%,i,0.62,-1.8,3.9
C=CCSC1=N/C(=C\c2ccc(C)o2)C(=O)S1,2.9,-1.0,?,.,.,.,-0.9
CCNc1nc(NCC)nc(N(C)/N=C/c2ccco2)n1,3.4,.,0%,i,.,-1.9,4.7
COc1cc2c(cc1[N+](=O)[O-])-c1ccc([N+](=O)[O-])cc1C2=NO,.,.,.,i,.,1.3,-27
COc1cccc(C(=O)OCC(=O)Nc2nnc(-c3ccccc3)o2)c1,2.0,1.0,4%,i,0.61,0.0,-2.7
Cc1cc(NC(=O)CSc2nc(-c3ccco3)cc(C(F)(F)F)n2)no1,0.2,2.9,.,.,0.71,.,1.0
Cc1ccn2c(NC(=O)c3ccco3)c(-c3ccccc3)nc2c1,0.4,2.4,4%,.,0.69,.,0.7
O=C(Nc1cccnc1)c1cc(-c2ccc(F)cc2)on1,-3.6,1.6,21%,i,0.64,3.6,3.0
COC(=O)[C@@H]1C[C@H]1[C@@H](NC(=O)c1ccccc1)c1ccccc1,-3.1,-0.7,-11%,i,.,-0.6,-0.2
c1ccc(COc2ncnc3c2ncn3CCCN2CCN(c3ncccn3)CC2)cc1,.,.,1%,i,.,0.9,-2.0
CCOC(=O)CSc1nc2cc3c(cc2cc1C#N)OCO3,.,-5.9,-62%,.,0.76,.,3.0
CCN(CC)S(=O)(=O)c1cccc(-c2nnc(SCc3nc4ccccc4s3)o2)c1,-0.6,0.3,-12%&-10%,.,0.79,.,3.6
Cc1ccc(NC(=O)C2CCCN(S(=O)(=O)c3c(C)noc3/C=C/N(C)C)C2)c(C)c1 (stereo unspecified),2.5,12,0%,i,0.72,1.9,0.0
CNC[C@@H]1Oc2cc(Br)ccc2S(=O)(=O)N([C@@H](C)CO)C[C@H]1C,.,.,-3%,i,.,1.4&-4.2&-1.0,-3.1
COc1ncccc1C(=O)N1CCC(n2nccc2NC(=O)CC(C)C)CC1,5.6,2.5,.,i,0.71,-0.3,4.3
Cc1ccc(OCC(=O)Nc2ccc(NC(=O)c3ccco3)cc2)c(C)c1,-1.0,-39,.,i,0.65,-1.1,-6.2
Cc1ccc(C)c(N2CCN(S(=O)(=O)c3csc(C(N)=O)c3)CC2)c1,1.7,1.3,-4%,i,0.65,-6.1,0.5
C[C@@H]1NS(=O)(=O)c2cc(Cl)ccc2O[C@@H]1c1ccccc1,.,.,-2%,i,.,-2.5,0.1
Cc1cc(C)n2nc(C(=O)Nc3ccc4c(c3)OCO4)cc2n1,-3.5,-0.3,2%,.,0.71,.,-2.0
NC(=O)C1c2ccccc2CSc2ccccc21 (stereo unspecified),-0.4,3.3,27%,.,0.74,.,2.1

# Other records.
SMILES,RanGTP-Imp inh,UCH37 inh,Vif A3G,FGF22 binding,E coli growth,MLL AF4-AF9 inh,HNF4A DNA FP
COC(=O)c1cc(C#N)c(SCc2ccccc2)nc1C,-0.9,2.0,20%,.,0.74,.,2.7
Cc1cccc(C)c1OCC(=O)N/N=C/C=C/c1ccco1,-2.0,.,?,i,.,-3.6,2.3
CCOC(=O)c1ccccc1NC(=O)CSc1nnc(COc2ccccc2)n1CC,-3.0,3.1,5%&-6%,.,0.72,.,3.5
O=c1ccc(-c2nc3ccccc3n2C(CCc2ccccc2)c2nc3ccccc3[nH]2)c[nH]1 (stereo unspecified),.,.,.,i,.,4.5,2.3
COc1ccc(C(=O)NC(NC(=S)Nc2ccc(S(N)(=O)=O)cc2)C(Cl)(Cl)Cl)cc1 (stereo unspecified),-3.2,2.3,1%,.,0.7,.,0.1
CCP(=O)(CC)c1cccc(N)c1,3.9,1.7,11%,.,0.75,.,2.9
COc1cc(C(O)c2nc(-c3cncnc3)cs2)ccc1F (stereo unspecified),.,.,.,i,.,-3.3,0.3
O=C1c2ccccc2C(=O)N1Cc1cc(-c2ccccc2Cl)no1,-0.8,4.2,-3%,.,0.69,.,1.1
Nc1ccc(C(=O)N/N=C/c2ccc(N3CCOCC3)s2)cc1,.,.,.,i,.,-1.0,3.0
Cc1ccc(C)n1-c1cc(S(=O)(=O)N2CCOCC2)ccc1N1CCCC1,33*,-3.1,5%,.,0.61,.,3.0
CC(C)[C@H](NC(=O)c1ccccc1Cl)C(=O)OCC(=O)NC(=O)NCc1ccco1,.,-2.0,.,i,0.65,-0.4,-0.6
COCCC(=O)NC1CCCc2c1cnn2-c1cccc(C)c1C (stereo unspecified),-3.6,2.0,.,i,0.67,1.3,0.5
Cc1c(C2=CCN(S(=O)(=O)c3ccc(Br)cc3)CC2)c2ccccc2n1C,2.2,-4.2,.,.,0.71,.,8.0
CCCc1[nH]nc2c1C(c1ccc(Br)s1)C(C#N)=C(N)O2 (stereo unspecified),-0.1,3.6,-5%,.,0.78,.,-3.1
CCN(CC)c1ccc(N2C(=O)c3ccccc3C2=O)cc1,-2.2,2.3,-3%,.,0.7,.,-1.6
Cc1cc(C)n(CC(O)COc2ccc(Cl)cc2)n1 (stereo unspecified),1.7,1.1,-1%,i,0.63,-12,0.5
Cc1cc(Cl)c2c(c1)[C@]1(C(=O)N2)[C@@H]2C(=O)N(Cc3ccccc3)C(=O)[C@@H]2[C@@H]2CCCN21,3.6,1.4,28%,.,0.68,.,-4.4
COc1ccc(CCC(=O)N2c3ccccc3N=C(c3ccc(C(F)(F)F)cc3)C2C(=O)NC(C)C)cc1 (stereo unspecified),.,.,.,.,.,-5.9,-0.1
COc1ccc(C(=O)C[n+]2cccc3cc(OC)ccc32)cc1,5.8,-66,5%,i,0.66,0.2,0.0
CC(OC(=O)c1ccc(C#N)cc1)C(=O)Nc1ccc(Cl)cn1 (stereo unspecified),.,-1.1,4%,.,0.61,-1.1,1.7
CN(c1ccc(-c2csc(NC(=O)C3CC(=O)N(Cc4ccco4)C3)n2)cc1)S(C)(=O)=O (stereo unspecified),.,-3.6,4%,i,0.69,4.3,-4.0
CCCc1nc2ccccc2c(=O)n1/N=C/c1ccc(O)cc1,8.2,.,0%,.,.,.,1.1

# Single records (already shown). Order of screens: RanGTP-Imp inh, UCH37 inh, Vif A3G, FGF22 binding, E coli growth, MLL AF4-AF9 inh, HNF4A DNA FP
# Nc1ccc(C(=O)N/N=C/c2ccc(N3CCOCC3)s2)cc1 reads ., ., ., i, ., -1.0, 3.0
# COc1ccc(C(=O)C[n+]2cccc3cc(OC)ccc32)cc1 reads 5.8, -66, 5%, i, 0.66, 0.2, 0.0
# COc1ccc(C(=O)NC(NC(=S)Nc2ccc(S(N)(=O)=O)cc2)C(Cl)(Cl)Cl)cc1 (stereo unspecified) reads -3.2, 2.3, 1%, ., 0.7, ., 0.1
# CCN(CC)c1ccc(N2C(=O)c3ccccc3C2=O)cc1 reads -2.2, 2.3, -3%, ., 0.7, ., -1.6
# CC(C)[C@H](NC(=O)c1ccccc1Cl)C(=O)OCC(=O)NC(=O)NCc1ccco1 reads ., -2.0, ., i, 0.65, -0.4, -0.6
